# RE007 growth inh: less growth of the S. pombe RE007 Vpr strain; S. pombe RE007 Vpr strain, BacTiter-Glo ATP luminescence, 24 h; control for the full effect not named in the record; Potency, µM (titrated, usually from 92.2 µM), without a hit: at the top dose activity change, negative = less growth; actives 0.21% (n = 360,000); AID 651644; active = well fitted falling curve with a large enough effect; inconclusive = small, poorly fitted or top-dose-only effect; inactive = no such curve, though single readings can be large or run the other way;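 further: on the % scale 0 is the no-effect control and ±100 the full control effect; nearly all actives have a fitted effect of over 50% in size; the assay follows cell death caused by Vpr and the record does not say whether a fall means rescue or toxicity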
#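 Fission yeast RE007 carrying one integrated HIV-1 vpr copy, seeded at OD 0.01 in PMG+AL medium with 23 nL pinned compound. Grown 24 h at 30 degrees; viability read by BacTiter-Glo luminescence after 5 min.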
# NS1 function inh: inhibitors of influenza NS1 protein function. Potency, µM (highest dose often 46.1 µM), without a hit: at the highest dose activity, positive = more growth. actives 0.4% (n = 270,000). S. cerevisiae slowed by influenza A NS1, growth recovery by OD600; active means well fitted rising curve with a large enough effect; inconclusive means small, poorly fitted or top-dose-only effect; inactive means no such curve, though single readings can be large or run the other way; further: nearly all actives have a fitted effect of over 50% in size
#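 In this qHTS, NS1 from influenza A is expressed in budding yeast, where it slows growth. Cells are switched from glucose to 2% galactose medium (pH 6.0, -URA), treated with compound, and growth recovery is read at OD600.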
# SARS PLpro yeast: SARS-CoV PLP inhibition in yeast | S. cerevisiae expressing SARS-CoV PLpro, growth rescue; control for the full effect not named in the record | Potency, µM (series often up to 32.9 µM), for inactives: top-dose activity, positive = growth rescue | actives 0.19% (n = 330,000) | AID 485353; active means well fitted rising curve with a large enough effect; inconclusive means small, poorly fitted or top-dose-only effect; inactive means no such curve, though single readings can be large or run the other way; further: 0% is about no effect; nearly all actives have a fitted effect of over 55% in size; growth read by luminescence after 48 h
# Marburg entry inh: inhibitors of Marburg virus binding or cell entry. actives 1.8% (n = 300,000). Potency, µM (top dose mostly 37.8 µM), for the others: top-dose activity change, negative = inhibition, usual class: inhibitors. Marburg virus pseudotyped entry inhibition, cell reporter; control for the full effect not named in the record; about a third of the inactives were read at about 46 µM; active = well fitted inhibition curve with a large enough effect; inconclusive = small, poorly fitted or top-dose-only effect, or effect the other way; inactive = flat fitted curve, though single readings scatter; tested in HEK293 cells; about a fifth of its hits are not listed in these tables; further: on the % scale 0 is the no-effect control and ±100 the full control effect; luciferase read-out
# LASV entry inh: Lassa virus entry inhibition; Lassa virus pseudotype entry inhibition, cell reporter; control for the full effect not named in the record; actives 1.2% (n = 300,000); Potency, µM (highest dose often 37.9 µM), inactives show top-dose activity change, negative = inhibition, hits mostly inhibitors; active means well fitted inhibition curve with a large enough effect; inconclusive means small, poorly fitted or top-dose-only effect, or effect the other way; inactive means flat fitted curve, though single readings scatter; tested in HEK293 cells; further: on the % scale 0 is the no-effect control and ±100 the full control effect; nearly all actives have a fitted effect of over 50% in size; luciferase read-out
# 2A StopGo: FMDV 2A StopGo reporter, luciferase signal; human cells with a luciferase reporter of 2A StopGo recoding; control for the full effect not named in the record; Potency, µM (titrated, usually from 57.9 µM), for inactives: at the highest dose signal change, negative = less light; actives 1.2% (n = 410,000); AID 1159524; active = well fitted falling curve with a large enough effect; inconclusive = small, poorly fitted or top-dose-only effect; inactive = no such curve, though single readings can be large or run the other way; tested in HEK293T cells; further: on the % scale 0 is the no-effect control and ±100 the full control effect; nearly all actives have a fitted effect of over 45% in size; luciferase light after 4 h
# Cruzain inh noDet: blocks cruzain activity in detergent-free assay | P25779 | purified cruzain, Z-FR-AMC fluorescence, no detergent | Potency, µM, without a hit: max response, negative = inhibition, usual class: inhibitors | actives 2.3% (n = 200,000);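 further: plate controls were enzyme without inhibitor for no effect and buffer without enzyme for full effect; nearly all actives have a fitted effect of over 40% in size; top concentration of the series not given in the record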
# Target sequence (P25779 123-467 limits assumed): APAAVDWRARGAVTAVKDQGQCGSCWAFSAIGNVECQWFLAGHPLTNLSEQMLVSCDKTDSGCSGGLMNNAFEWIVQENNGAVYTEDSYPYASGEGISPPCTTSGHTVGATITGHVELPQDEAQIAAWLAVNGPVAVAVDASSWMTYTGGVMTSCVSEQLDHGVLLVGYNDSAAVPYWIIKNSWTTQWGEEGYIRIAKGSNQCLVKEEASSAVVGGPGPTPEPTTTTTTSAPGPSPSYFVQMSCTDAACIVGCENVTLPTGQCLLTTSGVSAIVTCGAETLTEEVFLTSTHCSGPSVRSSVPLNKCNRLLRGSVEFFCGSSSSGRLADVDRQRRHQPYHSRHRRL
#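 Purified cruzain at 1.5 nM, pre-incubated 15 min with compound at room temperature in 100 mM sodium acetate pH 5.5, 5 mM DTT, 0.00005% Triton X-100. Reaction started with 2 uM Z-FR-AMC; AMC fluorescence increase over 60 s gives rate.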
# Cruzain inh Det: cruzain (T. cruzi) inhibition with detergent | Potency, µM, inactives show max response, negative = inhibition, actives largely listed as inhibitors | actives 0.43% (n = 200,000) | purified cruzain, Z-FR-AMC fluorescence, 0.01% Triton | AID 1478 | P25779;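 further: plate controls were neutral wells for no effect and buffer without enzyme for full effect; nearly all actives have a fitted effect of over 40% in size; top concentration of the series not given in the record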
#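 In this qHTS format, compounds are incubated with 1.5 nM cruzain for 15 min at room temperature before 2 uM Z-FR-AMC is added. Release of AMC is followed at 360/450 nm, and progress is taken as the 60 s fluorescence difference.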
# Active calls of the source: *; ? = inconclusive; . = no result given; & = joins results of further samples; [ ] = another dose, or the depositor's remark. Unless noted, the call rests on the fitted dose curve; in most records, active means well fitted curve in the direction sought with a large enough effect; inconclusive means small, poorly fitted or top-dose-only effect, or another doubt; inactive means no such curve, though single readings can be large; an effect the other way counts as inactive or inconclusive. Potency means the concentration at half of the fitted maximal effect.
SMILES,RE007 growth inh,NS1 function inh,SARS PLpro yeast,Marburg entry inh,LASV entry inh,2A StopGo,Cruzain inh noDet,Cruzain inh Det
Cc1ccc(SCc2nc3ccccc3n2CC(=O)Nc2ccc(Cl)cc2)cc1,-27%,?,-4%,?,?,-21%,?,1.4%
O=C(Cc1ccccc1)N1CCN(c2ccc([N+](=O)[O-])cc2)CC1,0%,-4%,1%,1%,.,?,.,.
COc1ccc(C2NC(=O)NC(C)=C2C(=O)Nc2cc(C)cc(C)c2)c(OC)c1 (stereo not given),.,.,.,?,-3%[46.1 µM],-15%,10%,-5.2%
COc1ccc(C(=O)Nc2ccc(Nc3ccccc3)cc2)cc1Br,-11%,.,.,-14%[46.1 µM],-10%,?,.,.
CCOc1ncccc1C(=O)OCc1nnc(-c2ccccc2)o1,-22%,-88%,8%,10%,1%,3%,-6%,1.1%
CCn1c(C)nc2cc(C(=O)NNS(=O)(=O)c3cc(Br)ccc3Br)ccc21,-4%,-10%,-1%,.,.,3%,.,.
NC(=S)Cc1nc(-c2ccccc2)cs1,6%,?,3%,?,-2%,5%,-16%,-3.3%
COCCNc1c([N+](=O)[O-])c(=O)n(-c2ccccc2)c2ccccc12,7%,-6%,1%,4%,-7%,-16%,-5%,-0.9%
Cc1ccc(NC(=O)COC(=O)C2=NN(c3ccccc3)C(=O)CC2)c(Br)c1,-2%,.,-3%,-11%,16%,-10%,.,.
Cc1ccc(/C=N/NC(=O)c2cccc(S(=O)(=O)Nc3ccccc3Cl)c2)o1,11%,0%,-6%,7%,7%,2%,-6%,-7.0%
C/[N+]([O-])=C1\Cc2ccccc2C1=O,-5%,-46%,-7%,?,1%,-12%,-1%,-4.7%
CN(C)c1ccc(C(=O)N=c2sccn2C)cc1[N+](=O)[O-],-1%,-1%,-6%,.,.,0%,.,.
Cc1ccc(Cl)cc1NC(=O)CCn1c(=O)c2cccn2c2cccnc21,.,.,.,.,?,-4%,1%,0.6%
COc1ccc(Nc2nc3cc(C)ccc3cc2C#N)c(OC)c1,9%,-1%,1%,.,.,-16%,.,.
COc1ccc(C=NNc2ccc([N+](=O)[O-])cc2S(=O)(=O)Nc2ccccc2C(=O)O)cc1OC,-8%,.,-13%,-9%,20%,13%,.,.
COc1ccccc1NS(=O)(=O)NC(=O)c1c(C)[nH]c2ccccc12,0%,10%,5%,.,.,-1%,.,.
CC(C)Cc1nnc(NC(=O)c2ccc(S(=O)(=O)N3CCCC3)cc2)s1,-9%,.,1%,25%[46.1 µM],17%,-12%,.,.
COc1ccc(OC)c(CCNC(=O)c2c3c(nc4ccccc24)C(=O)N(C2CCCCC2)C3)c1,.,.,.,.,?,-11%,-6%,-4.6%
Cc1cccn2c(=O)c(C=O)c(N3CCSCC3)nc12,-7%,0%,0%,.,.,14%,.,.
Cc1ccc(CNC(=O)C(=O)NCC(c2ccco2)S(=O)(=O)c2ccc(C)cc2)cc1 (stereo not given),.,.,.,.,-2%[46.1 µM],-20%,19%,-0.6%
Cc1ccc(N2CC(C(=O)Nc3ccccc3C(=O)NC3CCCCC3)CC2=O)cc1 (stereo not given),16%,-1%[9.22 µM],9%,-29%,21%,21%,-5%,0.5%
O=C(c1ccco1)N1CCN(C(c2ccc(Cl)cc2)c2nnnn2CC2CCCO2)CC1 (stereo not given),-19%,-14%,-4%,-17%[46.1 µM],0%,2%,?,2.3%
COc1cccc(NC(=O)CN2C(=O)CSc3nc(C)cc(C)c32)c1,17%,1%,2%,.,.,-23%,.,.
O=C1c2cccc3cccc(c23)C(=O)N1CC1CCN(S(=O)(=O)c2ccc(F)cc2)CC1,16%,17%,8%,-21%,-12%,-21%,-89%,-7.8%
COc1ccc(-c2csc3ncnc(N4CCN(Cc5ccccc5)CC4)c23)cc1,1%,-9%,-1%,1%,11%,22µM*,.,.
Cn1cnnc1Sc1nc2c(c(=O)n(C)c(=O)n2C)n1Cc1ccccc1Cl,-4%,1%,0%,?,1%,-16%,3%,-4.2%
O=C1C2C3C=CC(CNS(=O)(=O)c4ccccc4[N+](=O)[O-])(O3)C2C(=O)N1c1ccccc1 (stereo not given),5µM*,.,-5%,-15%[46.1 µM],8%,-13%,.,.
CCOC(=O)c1cccc(NC(=O)c2cc3cc4ccc(C)cc4nc3o2)c1,.,.,.,-2%[46.1 µM],2%[46.1 µM],-19%,6%,-1.2%
O=S(=O)(NC1CCCCC1Nc1ccc(Cl)cc1)c1ccccc1 (stereo not given),-3%,-15%,-50%,?,?,?,-7%,-17%
N#C/C(=C\c1cccnc1)C(=O)Nc1cccc2ccccc12,32µM*,0%,-16%,?,12%,25µM*,6%,-1.7%
CCOc1ccccc1NC(=S)N1CCC(NC(=O)NC23CC4CC(CC(C4)C2)C3)CC1,4%,2%,10%,-17%,-1%,.,5%,2.1%
N#Cc1nc(COc2cccc(Cl)c2)oc1NCCN1CCOCC1,-9%,1%,0%,1%,?,14%,.,.
CN(C)c1cc(-c2cccc(C(F)(F)F)c2)oc(=O)c1Cl,12%,.,.,?,-5%,-22%,.,.
O=C1Nc2ccccc2/C1=C/C(=O)c1cccs1,?,-230%,-31%,?,-15%,22µM*,14%,0.9%
CCCCCn1c(SCC2CCCO2)nc2cc(C(=O)N3CCC(C(N)=O)CC3)ccc2c1=O (stereo not given),6%,-22%,1%,-34%,-15%,23%,?,-1.7%
O=C(COc1cccc2ccccc12)NNC(=O)CSCCO,0%,15%,13%,-24%,-4%,5%,9%,-0.8%

# A stretch of the results above, for reference:
SMILES,RE007 growth inh,NS1 function inh,SARS PLpro yeast,Marburg entry inh,LASV entry inh,2A StopGo,Cruzain inh noDet,Cruzain inh Det
Cc1ccc(CNC(=O)C(=O)NCC(c2ccco2)S(=O)(=O)c2ccc(C)cc2)cc1 (stereo not given),.,.,.,.,-2%[46.1 µM],-20%,19%,-0.6%
Cc1ccc(N2CC(C(=O)Nc3ccccc3C(=O)NC3CCCCC3)CC2=O)cc1 (stereo not given),16%,-1%[9.22 µM],9%,-29%,21%,21%,-5%,0.5%
O=C(c1ccco1)N1CCN(C(c2ccc(Cl)cc2)c2nnnn2CC2CCCO2)CC1 (stereo not given),-19%,-14%,-4%,-17%[46.1 µM],0%,2%,?,2.3%
COc1cccc(NC(=O)CN2C(=O)CSc3nc(C)cc(C)c32)c1,17%,1%,2%,.,.,-23%,.,.
O=C1c2cccc3cccc(c23)C(=O)N1CC1CCN(S(=O)(=O)c2ccc(F)cc2)CC1,16%,17%,8%,-21%,-12%,-21%,-89%,-7.8%
COc1ccc(-c2csc3ncnc(N4CCN(Cc5ccccc5)CC4)c23)cc1,1%,-9%,-1%,1%,11%,22µM*,.,.
Cn1cnnc1Sc1nc2c(c(=O)n(C)c(=O)n2C)n1Cc1ccccc1Cl,-4%,1%,0%,?,1%,-16%,3%,-4.2%
O=C1C2C3C=CC(CNS(=O)(=O)c4ccccc4[N+](=O)[O-])(O3)C2C(=O)N1c1ccccc1 (stereo not given),5µM*,.,-5%,-15%[46.1 µM],8%,-13%,.,.
CCOC(=O)c1cccc(NC(=O)c2cc3cc4ccc(C)cc4nc3o2)c1,.,.,.,-2%[46.1 µM],2%[46.1 µM],-19%,6%,-1.2%
O=S(=O)(NC1CCCCC1Nc1ccc(Cl)cc1)c1ccccc1 (stereo not given),-3%,-15%,-50%,?,?,?,-7%,-17%
N#C/C(=C\c1cccnc1)C(=O)Nc1cccc2ccccc12,32µM*,0%,-16%,?,12%,25µM*,6%,-1.7%
CCOc1ccccc1NC(=S)N1CCC(NC(=O)NC23CC4CC(CC(C4)C2)C3)CC1,4%,2%,10%,-17%,-1%,.,5%,2.1%
N#Cc1nc(COc2cccc(Cl)c2)oc1NCCN1CCOCC1,-9%,1%,0%,1%,?,14%,.,.
CN(C)c1cc(-c2cccc(C(F)(F)F)c2)oc(=O)c1Cl,12%,.,.,?,-5%,-22%,.,.

# Further structures
SMILES,RE007 growth inh,NS1 function inh,SARS PLpro yeast,Marburg entry inh,LASV entry inh,2A StopGo,Cruzain inh noDet,Cruzain inh Det
CSc1sccc1/C=N/NC(=O)c1ccncc1,2%,0%,1%,24%,-2%,21%,-11%,-6.7%
O=[N+]([O-])c1ccccc1/C=N/Nc1nccnc1Cl,3%,-8%,-8%,?,?,0%,-2%,-4.9%
COc1cc(/C=C/C(=O)OCC(=O)Nc2cc(C)c(C)cc2[N+](=O)[O-])ccc1O,22%,-2%,0%,.,.,-13%,.,.
Cc1ccc(N(CC(=O)NCc2ccccc2)C(=O)CCC(=O)Nc2ccccn2)c(C)c1,-7%,-9%,2%,-15%[46.1 µM],-24%,-24%,.,.
CC1(C)NC(=O)N(Cc2cc(=O)n3ccsc3n2)C1=O,9%,7%,0%,14%,-14%,-5%,.,.
O=C(COc1ccc2ccc(=O)oc2c1)NC1CCN(Cc2ccccc2)CC1,-17%,-11%,?,-2%[46.1 µM],1%[46.1 µM],-19%,.,.
CCc1ccc(Nc2nc(N)nc(CSc3nc4ccccc4s3)n2)cc1,-3%,-7%,-85%,-29%[46.1 µM],14%[46.1 µM],-17%&-24%,?,-6.5%&-5.4%
Cc1ccc(C(=O)/C=C/N(C)C)cn1,-1%,0%,1%,10%,-9%,17%,.,.
Clc1ccccc1-c1nc(/C=N/N2CCOCC2)c2ccccn12,3%,.,3%,-2%,-5%,-21%,.,.
Cc1ccccc1OCCNC(=O)/C=C/c1ccc([N+](=O)[O-])cc1,-9%,0%,-10%,?,8%,-24%,2%,-8.6%
O=C(CCNS(=O)(=O)c1ccc(Br)cc1)N1CCCCCCC1,7%,.,?,?,9%[46.1 µM],-21%,.,.
Cc1cc(C(=O)CSc2nnc(-c3ccco3)o2)c(C)n1Cc1ccco1,-23%,2%,-4%,-18%,1%,-23%,16%,-2.3%

# Bioassay records: PubChem, National Center for Advancing Translational Sciences (NCATS)
